Mtb bLac sens = beta-lactam sensitization of Mtb H37Rv. 330,000 tested, 0.27% active. inhibition, % at 25 µM. M. tuberculosis H37Rv growth with meropenem, percent inhibition; hits of this screen are not shown here;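 active = about 74% or more and at least 40 points above the plate without the antibiotic, then above 30% in a dose series; inconclusive = first-round hits that could not be retested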;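 note: growth measured after seven days incubation then overnight dye step; 0% = bacteria only wells and 100% = bacteria with antibiotic; twin plates without the antibiotic show which effects depend on it; some results filed as inactive read as strong as hits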
Mtb growth = M. tuberculosis H37Rv growth inhibitors, H37Rv strain (AID 1626); M. tuberculosis H37Rv growth inhibition; higher % means a stronger effect; inhibition, % at 10 µM, or IC50 in µM where a hit was titrated; 220,000 tested, 0.95% active;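 active = confirmed in a dose series; inconclusive = inhibition above 80% but not taken into the dose series; inactive = below 80% or under 30% at every dose of the series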;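 note: bacteria incubated seven days before Alamar blue readout; 0% = bacteria only wells and 100% = bacteria with antibiotic wells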
YopH PTP inh = YopH (Yersinia) phosphatase inhibition; fluorescence Ex485/Em525; inhibition, %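 (about 10 µM by stock and volumes)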; 140,000 tested, 0.16% active; AID 898;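 active = inhibition of 50% or more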;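 note: controls were vehicle for no effect and minimum signal wells for full effect; inactives centre near -20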
Arbovirus anti = blocks arbovirus infection | 200,000 tested, 0.37% active | arbovirus infection cell-based antiviral screen | inhibition, % at 10 µM;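 active = inhibition from about 30%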;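 note: bluetongue infection of BSR cells; cell survival read as ATP light after 72 h; 0% = infected wells without compound and 100% = uninfected wells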
RecA intein inh = Mtb RecA intein splicing inhibition; P9WHJ3; cell-free RecA intein splicing, fluorescence; inhibition, %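 (about 9 µM by stock and volumes)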; 290,000 tested, 0.75% active; AID 2221; in the data active = inhibition above about 30%; inconclusive = no clear call, values can overlap the other calls;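 note: 0% = vehicle wells and 100% = reference inhibitor control wells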
Target sequence (P9WHJ3 whole entry, looked up): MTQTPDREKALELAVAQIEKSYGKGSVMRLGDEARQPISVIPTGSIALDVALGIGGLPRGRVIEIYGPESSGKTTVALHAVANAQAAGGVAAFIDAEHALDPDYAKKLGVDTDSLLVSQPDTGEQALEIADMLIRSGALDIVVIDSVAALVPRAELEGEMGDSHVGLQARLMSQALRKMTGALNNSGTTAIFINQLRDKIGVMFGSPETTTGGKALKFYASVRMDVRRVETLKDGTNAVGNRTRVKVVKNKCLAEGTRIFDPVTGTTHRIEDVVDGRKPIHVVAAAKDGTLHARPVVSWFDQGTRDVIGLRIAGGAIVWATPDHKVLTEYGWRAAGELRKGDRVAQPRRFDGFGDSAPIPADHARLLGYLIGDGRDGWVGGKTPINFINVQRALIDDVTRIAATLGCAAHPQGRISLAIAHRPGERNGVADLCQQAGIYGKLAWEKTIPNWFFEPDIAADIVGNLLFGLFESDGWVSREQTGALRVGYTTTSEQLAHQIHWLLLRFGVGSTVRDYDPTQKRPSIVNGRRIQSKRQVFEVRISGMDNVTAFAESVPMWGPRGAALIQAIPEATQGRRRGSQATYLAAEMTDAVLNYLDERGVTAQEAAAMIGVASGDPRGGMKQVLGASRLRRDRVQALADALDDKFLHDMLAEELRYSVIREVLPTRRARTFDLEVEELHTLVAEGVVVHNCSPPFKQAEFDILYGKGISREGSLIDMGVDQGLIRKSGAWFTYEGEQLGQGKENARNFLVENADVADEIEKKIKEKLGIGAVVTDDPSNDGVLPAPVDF
Arbovirus anti repeat = also measured in Arbovirus anti; calls as there; inhibition, %; measured here: 10K subset replicate screen; many hits read low in the repeat;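 first of two repeat runs on a subset; 0% = infected and 100% = uninfected wells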
Active calls of the source: *; u = inconclusive; x = no result given. A portion of the library (hit frequency here may not be typical).

SMILES	Mtb bLac sens	Mtb growth	YopH PTP inh	Arbovirus anti	RecA intein inh	others
CCC(=O)c1ccc(N2CCN(C(=O)Cc3ccccc3)CC2)c(F)c1	-6	-2%	-26	6	0.4
Cc1sc2ncnc(SCC(=O)N3c4ccccc4Sc4ccc(Cl)cc43)c2c1C	7	-3%	-14	-3	1.0
CCc1ccc(CNC(=O)C2CCC(=O)N(CCc3ccc(Cl)cc3)C2)nc1 (stereo unspecified)	-11	x	x	x	3.8
O=C(Cn1cc(SCc2cccc(Cl)c2)c2ccccc21)N1CCOCC1	-7	-4%	-15	22	4.6
CCC(C)NCc1ccc(C(=O)OC)o1 (stereo unspecified)	-2	3%	-12	0	2.5
COc1ccc(-n2nc(C(=O)NCC(=O)N3CCN(c4ccccn4)CC3)c3ccccc3c2=O)cc1OC	-7	-6%	x	-14	-0.2
Cc1ccc(CNC(=O)C(Cc2ccccc2)NS(=O)(=O)c2ccc(Br)s2)cc1 (stereo unspecified)	4	4%	-25	-20	6.5
CC(=O)c1c(C)oc2ccc(OCc3ccccc3)cc12	2	x	x	x	6.5
O=C(C[n+]1ccc(C(=O)NCCCO)cc1)c1cccc(Br)c1	-4	-2%	x	x	x
CCOc1ccc(CC(=O)OCN2C(=O)c3ccccc3C2=O)cc1	3	-6%	-103	-2	1.6
COc1ccccc1CNC(=O)c1ccc(NS(=O)(=O)c2c(C)noc2C)cc1	-7	-5%	-40	7	0.1
O=C(CCC(=O)N(CC(=O)NC1CCCC1)c1ccc(F)cc1)Nc1nccs1	-8	x	x	x	-0.7
COc1ccc(CN2CCNC(=O)C2CC(=O)N(C)Cc2ccncn2)c(OC)c1 (stereo unspecified)	4	4%	x	4	31*
O=C(C1CC1c1ccccc1)N1CCOCC1 (stereo unspecified)	-9	u	-36	3	-1.7
Cc1cc(/C=C(\C#N)C(=O)N2CCOCC2)c(C)n1C1CCCC1	-3	6%	x	x	-0.4
CCOC(=O)CSc1nc2ccccc2n2cnnc12	-1	-38%	-14	1	0.3
CN(C)S(=O)(=O)c1cccc(COC(=O)CN2C(=O)NC3(CCCC3)C2=O)c1	-4	x	x	x	1.2
O=C(Cn1c(=O)c2cccn2c2ccccc21)NCCCN1CCCCC1	0	x	x	x	-2.6
O=C(COc1ccccc1)N1CCN(S(=O)(=O)c2cccs2)CC1	-14	0%	-22	2	-1.3	Arbovirus anti repeat=3
COc1cccc(-c2noc(C(C)n3nc(C)c([N+](=O)[O-])c3C)n2)c1 (stereo unspecified)	-9	-5%	-35	-24	5.2
COc1cc2[nH]c(=O)n(CCCCCC(=O)NCCCN3CCCC3=O)c(=O)c2cc1OC	3	18%	-15	1	-4.4	Arbovirus anti repeat=0
CC(Sc1nc(-c2ccccc2)nc2c1COC(C)(C)C2)C(=O)N1CCOCC1 (stereo unspecified)	-24	0%	-9	-1	0.7
Cc1ccc(OC(=O)c2cccc(C(=O)Oc3ccc(C)cc3)n2)cc1	5	-5%	-29	4	-1.6
NC(=O)CC(NC(=O)Cc1ccc(Cl)cc1)c1ccc(NCCN2CCOCC2)c([N+](=O)[O-])c1 (stereo unspecified)	0	x	x	x	0.6
COC(=O)c1c(NC(=O)CN2CCC(C)CC2)c2c(C)cccc2n1C	x	-4%	-45	0	0.9
O=C1c2ccsc2SCCN1Cc1ccccc1	-4	9%	x	9	0.3
Cc1ccc(NC(=S)NC(NC(=O)C(C)(C)C)C(Cl)(Cl)Cl)c(C)c1 (stereo unspecified)	2	-8%	-20	-1	1.5
Nc1cccc(S(=O)(=O)NC2=NCCC2)c1	-12	-6%	-10	1	-1.8
CCO[C@H]1OC(C(=O)O)=C[C@@H](C2CC2)[C@@H]1CCCO	-13	-1%	x	3	0.2
Cc1cc(C)c2nc(N3CCCC(C(=O)NC4CCCC4)C3)sc2c1 (stereo unspecified)	0	x	x	x	0.1
O=C(c1ccc(=O)[nH]c1)N1CCCc2ccccc21	0	x	x	x	-0.1
O=C(O)c1ccc(COc2ccccc2C=C2C(=O)c3ccccc3C2=O)cc1	-7	-4%	-43	-8	2.2
CCC1CCCCN1C(=O)COC(=O)c1cc(Br)ccc1Cl (stereo unspecified)	96	15µM*	x	9	3.8
CC(C)(C#N)N([O-])C=C[N+](=O)C(C)(C)C#N	-2	-3%	-50	1	-3.5
COc1ccc2[nH]c(=O)c(C3c4cc(OC)c(OC)cc4CCN3C(=O)c3ccco3)cc2c1 (stereo unspecified)	1	x	x	x	3.0
Cc1ccc(C(=O)CSc2nc(C)cc(SCc3nnc(-c4ccccc4)o3)n2)cc1	-4	2%	-38	-9	4.1
COc1cc(C)c(C(=O)Oc2cc(C)c(C(=O)O)c(O)c2C)c(OC)c1C	-3	-16%	x	12	5.5
O=C(NC(=S)Nc1ccc(Cl)cn1)c1cc([N+](=O)[O-])ccc1N1CCOCC1	2	x	x	x	-0.4
COc1cccc2sc(Nc3nc(-c4ccncc4)cs3)nc12	35	1%	x	-9	-3.0
COc1cccc(CN2CCN(Cc3nc4c(s3)CCCC4)CC2CCO)c1 (stereo unspecified)	0	6%	x	3	-0.6
CC(=O)Nc1ccc(NC(=O)CSc2nnc(NC(=O)c3ccco3)s2)cc1	-20	x	x	x	-1.3
Cc1sc2nc3ccc(N4CCCC4)nn3c(=O)c2c1C	-3	x	x	2	-143	Arbovirus anti repeat=1
Cc1cc(C)cc(OCCCn2ccnc2)c1	-8	x	x	x	1.8
O=C(NC1CCCCC1)c1cc(C2CC2)on1	-2	3%	x	x	-3.4
COc1ccc(P(=O)(COc2ccc([N+](=O)[O-])cc2)c2ccc(OC)cc2)cc1	-3	9%	-28	2	-0.6
CCC(C)(C)NC(=O)Cc1ccc(C)cc1	-9	-5%	6	3	-1.3
CCOC(=O)N1CCN(c2c(NCc3ccccc3Cl)c(=O)c2=O)CC1	6	1%	x	x	-0.5
Cc1ccc(NC(=O)CNC(=O)c2ccco2)cc1	0	x	x	x	-1.4
O=C(CCCSc1nc2ccccc2[nH]1)N1CCN(c2ccc([N+](=O)[O-])cc2)CC1	-17	-1%	-15	-1	2.7
CCN(CC(=O)NC1CCS(=O)(=O)C1)c1ccc(S(C)(=O)=O)cc1[N+](=O)[O-] (stereo unspecified)	-1	1%	26	7	2.6
O=C(COc1ccc([N+](=O)[O-])cc1)Nc1cccc2nsnc12	12	x	x	x	1.9
Nc1ccc([As](=O)(O)O)cc1	3	3%	-44	6	1.1
CCOC(=O)C1=C(N)Oc2cc(O)ccc2C1c1ccccc1 (stereo unspecified)	7	x	x	x	-2.9
CCOC(=O)c1nn(-c2ccc(F)cc2)c2nc(Nc3ccccc3)cc(=O)n12	81	8%	-21	3	-1.7
COc1ccc(C2CC(c3ccc(OC)cc3O)=NN2C(=O)c2ccccc2)cc1 (stereo unspecified)	0	x	x	x	7.9
CC(C)CCNC(=O)C1CC(c2cccc([N+](=O)[O-])c2)=NO1 (stereo unspecified)	-6	4%	-5	2	-6.0
CC(C)c1ccc(-n2c(O)c(/C=N/N3CCOCC3)c(=O)[nH]c2=S)cc1	-6	-6%	x	x	-2.9
CCOC(=O)CC(NC(=O)CCc1c(C)nc2nc(C)nn2c1C)c1ccc(OC(C)C)cc1 (stereo unspecified)	-7	-7%	x	7	-2.4
Cc1c(Br)c(O)c(Br)c(O)c1/C=N/n1c(-c2ccccc2)n[nH]c1=S	2	x	x	x	-0.6
COc1ccc(-c2[nH]ncc2CNC(C)c2cn(C)nc2C)c(F)c1 (stereo unspecified)	-4	2%	x	3	0.7

Structural class: the entries above with a cyano group
SMILES	Mtb bLac sens	Mtb growth	YopH PTP inh	Arbovirus anti	RecA intein inh	others
Cc1cc(/C=C(\C#N)C(=O)N2CCOCC2)c(C)n1C1CCCC1	-3	6%	x	x	-0.4
CC(C)(C#N)N([O-])C=C[N+](=O)C(C)(C)C#N	-2	-3%	-50	1	-3.5

5 structures out of the list, sorted by molecular weight, falling.
SMILES	Mtb bLac sens	Mtb growth	YopH PTP inh	Arbovirus anti	RecA intein inh	others
CCOC(=O)CC(NC(=O)CCc1c(C)nc2nc(C)nn2c1C)c1ccc(OC(C)C)cc1 (stereo unspecified)	-7	-7%	x	7	-2.4
O=C(CCCSc1nc2ccccc2[nH]1)N1CCN(c2ccc([N+](=O)[O-])cc2)CC1	-17	-1%	-15	-1	2.7
CCN(CC(=O)NC1CCS(=O)(=O)C1)c1ccc(S(C)(=O)=O)cc1[N+](=O)[O-] (stereo unspecified)	-1	1%	26	7	2.6
CCOC(=O)N1CCN(c2c(NCc3ccccc3Cl)c(=O)c2=O)CC1	6	1%	x	x	-0.5
Cc1cc(C)cc(OCCCn2ccnc2)c1	-8	x	x	x	1.8

(list continues)
SMILES	Mtb bLac sens	Mtb growth	YopH PTP inh	Arbovirus anti	RecA intein inh	others
O=C(Cc1ccccc1)N1CCCC(c2nc(-c3ccc(S(=O)(=O)N4CCCC4)cc3)no2)C1 (stereo unspecified)	-4	-9%	-7	-9	1.0
Cc1ccc(S(=O)(=O)N(C(=N)N)c2nc(N(C)C)nc(N(C)C)n2)cc1	-10	x	x	x	15
COC(CN(C)C(=O)c1ccc2c(c1)NC(=O)c1ccccc1S2)OC	-4	x	x	x	-3.0
CC1=CCC2C(=O)N(C(C)c3ccccc3)C(=O)C2C1 (stereo unspecified)	-4	0%	-32	3	0.9
CCOc1ccc(NC(=O)c2ccccc2NS(C)(=O)=O)cc1	-1	-1%	-54	9	-0.6
Cn1nnnc1SCCNCc1ccccc1OCc1ccccc1	-4	4%	-25	1	0.1
O=C(CN1C2CCCC1CC(NC(=O)c1ccccc1)C2)Nc1ccccc1C(F)(F)F (stereo unspecified)	15	x	x	x	5.4
O=C(Cc1cccs1)N/N=C/C=C/c1ccccc1[N+](=O)[O-]	-14	-1%	x	x	0.2
CN1/C(=C\C(=O)COC(=O)CN2C(=O)C3CC=CCC3C2=O)C(C)(C)c2ccccc21 (stereo unspecified)	3	-7%	-28	4	0.7
CCc1ccc(NC(=O)CNS(=O)(=O)c2c(C)noc2C)cc1	-2	-1%	-49	2	-3.1
CC1CC(C)(C)CC2(C1)NC(=O)N(CC(=O)NC1CCCc3ccccc31)C2=O (stereo unspecified)	-5	-3%	-1	2	-0.3
Cc1nc(C)n(CCNS(=O)(=O)c2ccccc2)n1	5	x	x	x	-3.5
CCCN(CCC)Cc1c(C(=O)N/N=C/c2c[nH]c3ccccc23)nnn1-c1nonc1N	1	x	x	x	-2.9
COc1cc(C2CC(=O)Oc3c(C(CCN4CCOCC4)c4ccc(N(C)C)cc4)c(OC)cc(OC)c32)cc(OC)c1OC (stereo unspecified)	-2	0%	x	x	-1.1
O=c1c2ccccc2c(-c2ccccc2)nn1-c1ccccc1	x	9%	x	x	-0.7
O=C(NC(=S)Nc1ccc(Cl)c(C(=O)O)c1)c1ccc(OCc2ccccc2)cc1	85	x	x	x	5.3
COC(=O)/C(=N/Nc1ccccc1Cl)Sc1nnc(C(O)c2ccccc2)n1-c1ccccc1 (stereo unspecified)	-1	-6%	-18	-6	-2.0
Cc1oc(-c2ccoc2)nc1CN(Cc1ccccc1)CC1CC1	-6	1%	x	0	-3.0
Cc1ccc(S(=O)(=O)c2cc3c(=O)n4cccc(C)c4nc3n(Cc3ccncc3)c2=N)cc1	-4	x	x	x	-7.2
COc1cccc(Nc2nc3ccccc3c(=O)[nH]2)c1	0	7%	x	11	x
Cc1onc(-c2c(Cl)cccc2Cl)c1NC(=O)NNc1ccccc1	-11	-7%	x	x	x
CCN(CC)CC(=O)Nc1ccc(Cl)cc1C(=O)c1ccccc1	5	7%	-17	-16	x
CN(CCNC(=O)CCCOc1cc(=O)n(C)c2ccccc12)Cc1ccccc1	-9	-12%	x	-9	0.0
COc1cccc(CC2(CO)CCN(Cc3cnc(N4CCOCC4)s3)CC2)c1	3	-2%	x	-2	-6.0
COCc1ccc(C(=O)NC2CCSc3ccccc32)cc1 (stereo unspecified)	-6	x	x	x	0.4
CCc1nnc(NC(=O)c2sc3nc4cc(C)ccc4cc3c2N)s1	1	x	-25	-13	-3.5
CCOC(=O)C(Cc1cc(C(C)=O)ccc1OCC)C(=O)OCC	47	-3%	-10	-6	-2.4
COc1ccc(S(=O)(=O)N2CCN(C(=O)CC(C)C)CC2)cc1	-13	x	x	x	1.7
CCOC(=O)CSc1nc(N)c(C#N)c(-c2cccs2)c1C#N	100	1.6µM*	-34	-6	-4.0
O=C(NCCS(=O)(=O)NCc1ccccc1Cl)c1ccc2c(c1)OCO2	-9	x	x	x	-0.3
CCn1cnc2c1c(=O)n(CC(=O)OC)c(=O)n2Cc1ccccc1	-9	x	x	x	-0.4
COc1ccc(/C=C2/C(=O)N(CC3CCCO3)C(=S)N2C)c(OC)c1 (stereo unspecified)	-4	-1%	-7	52*	-2.7
CC(=O)c1ccc(NC(=O)c2ccccc2-c2ccccc2C(=O)O)cc1	18	x	x	x	-1.4
CCC(=O)Nc1ccc(NCc2ccc(-c3ccccc3)cc2)cc1	4	x	x	x	-1.5

Bioassay records (PubChem)
